Screening data (PubChem BioAssay)
B2AR ag: beta2AR agonists driving receptor internalization, primary screen, cell-based, FAP fluorogen, flow cytometry; Beta-2 adrenergic receptor (Homo sapiens), P07550; Am2.2-beta2AR cells; reference of the scale not given here; response, % (concentration not given with the values); actives 0.43% (n = 340,000); AID 504454, 2011;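 active means response above a set limit, near 3 SD of response in nonfluorescent compounds, cut at about 42% in these data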;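 further: stock transfer was 100 nL into about 11 µL; a reference agonist was the positive control; negative values mostly stem from fluorescent compounds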
Target sequence (P07550 whole entry, looked up): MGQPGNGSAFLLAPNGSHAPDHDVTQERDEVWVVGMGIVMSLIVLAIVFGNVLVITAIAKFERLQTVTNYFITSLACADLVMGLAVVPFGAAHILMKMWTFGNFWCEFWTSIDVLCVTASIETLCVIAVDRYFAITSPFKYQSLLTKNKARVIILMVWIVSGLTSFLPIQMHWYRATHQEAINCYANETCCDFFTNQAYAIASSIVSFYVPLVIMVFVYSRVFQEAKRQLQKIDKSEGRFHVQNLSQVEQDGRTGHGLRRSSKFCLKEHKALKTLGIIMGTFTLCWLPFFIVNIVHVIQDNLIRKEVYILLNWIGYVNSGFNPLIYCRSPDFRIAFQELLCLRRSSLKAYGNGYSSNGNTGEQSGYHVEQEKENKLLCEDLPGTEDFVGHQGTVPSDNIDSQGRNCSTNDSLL
Ecoli rRNA inh: reduced GFP signal of wild-type E. coli, primary screen, bacterial rRNA inhibitor project, GFP/RFP fluorescence, OD600, single point; E. coli WT GFP vs humanized-ribosome RFP mutants, 24 h; hits give low values; DMSO median 0, no signal -100; GFP signal change (wild-type ribosome), % (no concentration beside the values); actives 1.6% (n = 350,000); AID 720706, 2013;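 active means significant combined selectivity score with lowered wild-type GFP, culture density cut under 30%, mutant RFP and density less affected; inactive means any of these conditions unmet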; further: one replicate is shown; some compounds called inactive have numbers as strong as hits
FGF22 binding: binders of human FGF22 protein, primary screen, FGF22 synaptogenesis inhibitor project, biophysical, thermal shift, single point | Fibroblast growth factor 22 (Homo sapiens), Q9HCT0 | recombinant FGF22 thermal shift, SYPRO orange fluorescence; percent of sucrose octasulfate shift, DMSO zero | calls only at 9.99 µM | actives 1.5% (n = 340,000);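 active means melting point raised past a set limit in the mean and every replicate; three in four hits are not shown here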
Target sequence (Q9HCT0 whole entry, looked up): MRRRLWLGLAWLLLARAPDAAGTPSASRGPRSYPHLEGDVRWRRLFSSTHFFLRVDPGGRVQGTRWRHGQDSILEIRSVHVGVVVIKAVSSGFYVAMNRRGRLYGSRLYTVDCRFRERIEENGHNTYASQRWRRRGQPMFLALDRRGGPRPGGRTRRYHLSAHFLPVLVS
UCH37 DUB inh: inhibitors of human UCH37 deubiquitinase, primary screen, biochemical, Ub-AMC cleavage, fluorescence; Ubiquitin carboxyl-terminal hydrolase isozyme L5 (Homo sapiens), Q9Y5K5; purified proteasome/UCH37; inhibition, % (no concentration beside the values); actives 0.33% (n = 330,000);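 active means mean of two replicates above 20%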;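 further: 0% = compound-free wells with enzyme and 100% = wells lacking proteasome; stock transfer was 100 nL into about 20 µL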
Target sequence (Q9Y5K5 whole entry, looked up): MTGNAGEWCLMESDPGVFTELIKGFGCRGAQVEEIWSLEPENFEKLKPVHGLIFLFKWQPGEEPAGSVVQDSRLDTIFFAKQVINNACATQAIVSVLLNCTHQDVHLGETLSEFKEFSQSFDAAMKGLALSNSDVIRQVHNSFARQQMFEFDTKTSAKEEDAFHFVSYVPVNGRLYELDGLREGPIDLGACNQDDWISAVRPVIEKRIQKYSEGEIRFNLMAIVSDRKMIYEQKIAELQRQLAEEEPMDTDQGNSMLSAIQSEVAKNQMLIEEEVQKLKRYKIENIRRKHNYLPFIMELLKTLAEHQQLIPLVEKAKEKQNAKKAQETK
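Assay system: Proteasome-bound UCH37. Buffer or medium: pH 7.4 Tris-HCl (50 mM) with ovalbumin, ATP-MgCl2, DTT. Incubation: 30 min preincubation with enzyme, 25 min cleavage at room temperature. Measured by: fluorescence, ex 355 nm, em 460 nm. Read-out basis: percent inhibition. Control set: wells without proteasome as full block, compound-free enzyme plus substrate as uninhibited.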
Ecoli growth: E. coli growth inhibition, primary screen, OD600 | actives 0.21% (n = 330,000) | OD600 absorbance (concentration not given with the values) | Escherichia coli growth, 23 h; hits give low values;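 active means OD600 absorbance below the run mean of sample wells minus 3.6 SD, in any replicate, cut at about 0.56 in these data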;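 further: stock transfer was 300 nL into about 60 µL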
HNF4A DNA FP: change in binding of human HNF4A to DNA, primary screen, biochemical, fluorescence polarization, FITC-DNA; 1 h; actives 0.3% (n = 360,000); activity change, % at 10 µM; in the data active means activity change above about 30%, passing the limit was not always enough;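 further: controls were the assay level and a saturating level of protein; the project sought stronger binding though the title names inhibitors; some compounds called inactive have numbers as strong as hits; positive values seem to mean higher polarization but the record does not say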
ALR H2O2 inh: inhibitors of human ALR sulfhydryl oxidase, primary screen, biochemical, H2O2 detection, HRP-luminol luminescence, single point. purified ALR, DTT oxidation. inhibition, % (test concentration not listed). actives 3.8% (n = 290,000). AID 485317, 2010;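 active means mean and each replicate at 75% or more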;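 further: stock transfer was 7.5 nL into about 7.5 µL; 0% = neutral wells and 100% = wells with inactivated enzyme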
Ecoli rRNA inh OD600: also measured in Ecoli rRNA inh; calls as there; OD600 change, %; measured here: OD600 growth;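 optical density of the mix in the first replicate; 0 = DMSO median and -100 = no signal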
Ecoli rRNA inh RFP: further read-out of Ecoli rRNA inh, marked with its call; RFP signal change, %; measured here: RFP humanized mutant strains;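 first replicate; 0 = DMSO median and -100 = no signal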
Active calls of the source: *; i = inactive; / = no result given. Only part of the results is shown; rates above refer to the full screens.

SMILES	B2AR ag	Ecoli rRNA inh	Ecoli rRNA inh OD600	Ecoli rRNA inh RFP	FGF22 binding	UCH37 DUB inh	Ecoli growth	HNF4A DNA FP	ALR H2O2 inh
CCC/C=C/c1ccc(CN2C(C(C)C)C(=O)N(Cc3cn(CCC4OCCO4)nn3)CCS2(=O)=O)cc1 (stereo not drawn)	/	6	11	1.0	i	/	/	-2.9	/
C=CCn1c2ccccc2c2nnc(SCCN3CCCCC3)nc21	-8	1	0	-1.0	i	6.1	0.67	-0.6	4
O=C(c1ccco1)N1CCN(c2ncnc3c(-c4ccc(Cl)cc4)nsc23)CC1	7	/	/	/	/	-5.5	0.72	0.5	-19
Cc1cc(=O)n2[nH]c(NCc3c(F)cccc3Cl)nc2n1	1	1	6	-0.7	i	-0.1	0.67	0.9	5
COc1ccc(CN2C(=O)CSCC2=O)cc1OC	-10	17	11	3.8	i	0.8	0.68	1.3	4
O=C(COn1nnc2ccc(C(F)(F)F)cc21)Nc1nnc(-c2ccccc2)o1	6	/	/	/	/	1.6	0.79	-4.2	19
CN1CCN(c2ncnc3c2ncn3[C@H]2CN(Cc3ccncc3)C[C@@H](CO)O2)CC1	/	13	17	0.9	i	/	/	4.7	/
O=C(O)c1ccc(/C=N/Nc2nc(N3CCCCC3)nc(N3CCCCC3)n2)cc1	1	-14	-11	-5.0	i	/	/	-2.7	3
CC(C)(C)Cc1nnc(NS(=O)(=O)c2ccc(F)cc2)s1	-3	/	/	/	/	2.7	0.69	2.2	9
COCCCNC(=O)[C@H](Cc1c[nH]c2ccccc12)NC(=O)OCc1ccccc1	-3	-4	7	-1.8	i	0.1	0.67	-0.7	-1
COc1ccccc1C(=O)NCCC(=O)N1CCN(S(=O)(=O)c2ccc(Cl)cc2)CC1	0	0	2	0.7	i	0.7	0.63	2.9	-4
CCCCC1Cc2[nH]c(=S)[nH]c(=O)c2C(c2cccc3ccccc23)O1 (stereo not drawn)	/	-32	-29	-7.2	i	/	/	-1.1	/

Complete entries, looked up by structure. Values in the order: B2AR ag	Ecoli rRNA inh	Ecoli rRNA inh OD600	Ecoli rRNA inh RFP	FGF22 binding	UCH37 DUB inh	Ecoli growth	HNF4A DNA FP	ALR H2O2 inh
Listed for Cc1cc(=O)n2[nH]c(NCc3c(F)cccc3Cl)nc2n1 → 1	1	6	-0.7	i	-0.1	0.67	0.9	5
Listed for O=C(c1ccco1)N1CCN(c2ncnc3c(-c4ccc(Cl)cc4)nsc23)CC1 → 7	/	/	/	/	-5.5	0.72	0.5	-19

Only ALR H2O2 inh and HNF4A DNA FP, for some of the entries so far:
| compound | ALR H2O2 inh | HNF4A DNA FP |
| --- | --- | --- |
| C=CCn1c2ccccc2c2nnc(SCCN3CCCCC3)nc21 | 4 | -0.6 |
| O=C(c1ccco1)N1CCN(c2ncnc3c(-c4ccc(Cl)cc4)nsc23)CC1 | -19 | 0.5 |
| Cc1cc(=O)n2[nH]c(NCc3c(F)cccc3Cl)nc2n1 | 5 | 0.9 |
| COc1ccc(CN2C(=O)CSCC2=O)cc1OC | 4 | 1.3 |

Remaining list, next part.
SMILES	B2AR ag	Ecoli rRNA inh	Ecoli rRNA inh OD600	Ecoli rRNA inh RFP	FGF22 binding	UCH37 DUB inh	Ecoli growth	HNF4A DNA FP	ALR H2O2 inh
Cc1cc(C(=O)Nc2sc(C)c(-c3ccc(F)cc3)c2C(N)=O)no1	-7	/	/	/	/	-6.5	0.72	-3.8	-8
CCOc1cccc(C(=O)NCc2ccccc2)c1	-5	10	11	1.1	i	3.1	0.67	-2.5	2
COc1ccc(S(=O)(=O)c2c(O)c3ccc(C(=O)Nc4ccc(F)cc4F)cc3[nH]c2=O)cc1	15	-1	7	3.8	i	2.7	0.67	3.1	65
CN1C(=O)S/C(=C/c2ccccc2OCc2ccc(C(=O)O)cc2)C1=O	7	-15	-30	-5.3	/	3.3	0.67	0.7	6
CCc1c(C(=O)Nc2ccncc2)csc1C	-7	/	/	/	/	3.1	0.71	7.9	-8
Cc1cc2c(cc1S(=O)(=O)N1CCOCC1)NC(=O)CO2	-2	5	9	-0.1	i	2.2	0.69	-0.1	/
Cc1ccc(NCCC(=O)c2cccs2)cc1	1	-2	4	6.8	i	5.1	0.69	3.1	99*
O=C(c1cc(-c2cccc(Cl)c2)nc2ccccc12)N1CCCC1	8	-19	-49	-8.3	i	3.5	0.67	1.1	-16
COc1cc(NC(=O)COC(=O)/C=C/c2c(C)nn(C3CCS(=O)(=O)C3)c2Cl)cc(OC)c1OC (stereo not drawn)	-3	/	/	/	/	-5.2	0.79	-2.3	/
Cc1cccc(OC(=O)CCN2C(=O)C3C4C=CC(C5CC45)C3C2=O)c1C (stereo not drawn)	0	-3	-2	-3.1	i	2.6	0.71	-3.5	-2
O=[N+]([O-])c1ccc(S(=O)(=O)Nc2ccc(S(=O)(=O)N3CCCC3)cc2)cc1	-3	9	8	4.5	i	2.9	0.71	-1.9	-6
Cc1c(C(=O)OC(C)C)[nH]c2c1C(=O)CC(C)(C)C2	2	-3	-5	3.3	i	4.4	0.68	0.6	-6
O=C(Cc1c(F)cccc1Cl)NC1CCN(Cc2ccccc2)CC1	-5	8	4	5.1	i	4.6	0.71	2.4	-3
CC(OC(=O)c1ccccc1NCCO)C(=O)Nc1ccc(S(=O)(=O)N2CCOCC2)cc1 (stereo not drawn)	-14	2	-8	1.2	/	-317	0.68	1.2	-7
Cc1cc(C[n+]2cc(Cl)ccc2N)c2ncccc2c1	1	16	6	-4.7	i	4.0	0.68	-2.3	-10
COC(=O)c1c(NC(=O)CSc2nnnn2-c2ccccc2)sc2c1CCC(C(C)(C)C)C2 (stereo not drawn)	15	/	/	/	/	-2.5	0.67	3.4	0
Cc1[nH]c2ccccc2c1C(=O)CN1CCC(C)CC1	2	/	/	/	/	2.3	0.69	2.0	-10
CC1CCc2cc(F)cc3c(O)c(C(=O)NCc4ccco4)c(=O)n1c23 (stereo not drawn)	2	/	/	/	/	-7.2	0.63	-2.8	/
COc1ccccc1C(=O)N(CN1CCCC1=O)c1cccc(Cl)c1	4	/	/	/	/	0.2	0.69	2.2	-2
Cc1ccc(OCC(=O)Nc2ccc3c(c2)OCO3)c([N+](=O)[O-])n1	-7	3	6	-2.6	i	4.6	0.69	2.0	-9
CSc1ccccc1NC(=O)c1cc(Cl)sc1Cl	-9	-16	-32	-5.9	i	-0.2	0.66	4.9	-16
CC1(C)Cc2c(cnn2-c2cccc(F)c2)C(NC(=O)CSc2ccccn2)C1 (stereo not drawn)	-6	-16	-10	0.8	i	-8.8	0.72	3.6	54
Cc1cc(C(=O)NNS(=O)(=O)c2ccc(C(C)(C)C)cc2)nn1C(C)(C)C	-1	-8	7	0.6	i	9.4	0.67	-2.3	27
CC(C)CSc1nc2c(c(=O)[nH]c(=O)n2C)n1CC(O)COc1cccc2ccccc12 (stereo not drawn)	3	/	/	/	/	3.2	0.71	0.7	/
Cc1ccccc1OCC(=O)NCC(C)(C)N1CCOCC1	-2	9	8	-0.4	i	-2.1	0.65	0.6	-16
CCOc1ccc(NS(=O)(=O)c2cc(C(=O)NCCN3CCOCC3)ccc2C)cc1	-4	10	21	-3.3	i	0.6	0.71	2.6	0
O=C1C=C(Nc2ccccc2C(=O)O)c2ccccc2C1=O	5	-27	-40	-17	i	82*	0.67	-8.8	/
C=CCN(c1ccc(C(=O)Nc2ccc(NC(C)=O)cc2)cc1)S(C)(=O)=O	-11	7	10	-1.2	i	0.4	0.7	-1.2	2
Cc1cccc2cc(C#N)c(SCC(=O)N3CCC(C)CC3)nc12	-8	/	/	/	/	-2.7	0.79	-0.3	-1
COc1ccc(N2CC(C(=O)NCCC3=CCCCC3)CC2=O)cc1 (stereo not drawn)	0	/	/	/	/	-1.7	0.7	-5.0	-13
COc1ccc(OCC(=O)N/N=C2\CCCc3ccccc32)cc1	7	-21	-39	-7.5	i	/	/	-3.0	-78
O=Cc1c(NCc2ccccc2)c2ccccc2[nH]c1=O	-1	3	16	11	i	4.9	0.7	2.5	-6
NC(=O)c1ccc(NC(=O)COC(=O)c2ccc(Br)c(S(=O)(=O)N3CCOCC3)c2)cc1	3	-2	1	0.5	i	1.7	0.63	-0.2	/
CCOC(=O)c1cnc2c(C)c(C)ccc2c1NCCN1CCOCC1	2	18	11	3.2	i	3.5	0.64	-1.2	/
O=C(NNC(=O)c1ccc(SCC2CCCO2)c([N+](=O)[O-])c1)c1ccc(F)cc1 (stereo not drawn)	-9	/	/	/	/	-1.9	0.72	-3.1	1
CCOc1cccc(OCCOCCN2CCCC2)c1	0	/	/	/	/	2.7	0.7	-2.5	/
COc1cc(/C=C/C(=O)OCC(=O)c2ccccc2)cc(OC)c1OC	-3	-33	-28	-5.9	i	-2.5	0.72	2.6	3
COC(=O)CCCn1c(C)cc(C(=O)CCl)c1C	0	20	13	28	/	5.5	0.72	-1.2	14
Cc1noc(C)c1COc1ccccc1C(=O)N1CCN(S(=O)(=O)c2cccc(Cl)c2)CC1	-4	-1	-4	-2.0	i	0.9	0.68	-1.4	/
COC(=O)c1cccc(Oc2cccc(Cl)n2)c1	2	5	-5	-0.5	i	1.5	0.69	-0.1	-8
N#Cc1ccccc1CSc1nnc(Cc2ccccc2)o1	-1	-12	-17	-2.4	i	-0.7	0.71	-5.4	-6
COc1ccc(-c2nc3c4ccccc4ccn3c2Cc2cccc(Cl)c2)cc1OC	/	-5	1	-1.6	i	/	/	6.8	/
O=C1C(Nc2ccccc2)=C(N2CCCCC2)C(=O)c2ccccc21	-1	/	/	/	/	7.2	0.74	-0.2	-11
COc1ccccc1CNC(=O)C1CCCN(S(=O)(=O)c2cccc3nonc23)C1 (stereo not drawn)	-2	-1	-2	0.6	i	0.3	0.67	1.0	-13
COc1cnc(-c2ccccn2)[nH]c1=O	4	/	/	/	i	0.4	0.7	0.5	-2
O=C(c1cnc2ccccn2c1=O)N1CCc2ccccc21	5	16	15	-4.4	i	13	0.69	2.2	-2
CCOC(=O)C1(CCc2ccccc2)CCN(Cc2c(O)cccc2OC)CC1	19	-54	-75	-14	i	3.2	0.6	-5.7	-6
Cc1cn(CC(C)C)c(=O)n(-c2ccccc2)c1=O	1	4	7	-3.5	i	3.3	0.69	1.2	/
C#CCOCCOCCOCCNc1nc(N2CCN(C(=O)[C@H]([C@@H](C)CC)n3cc(CCCCN)nn3)CC2)nc(N2CCN(C(=O)[C@H](C)n3cc(CCCN=C(N)N)nn3)CC2)n1	2	5	18	2.4	i	0.4	/	5.8	/
CC1CN(c2nc(N(C)c3ccccc3)nc(N)c2[N+](=O)[O-])CC(C)O1 (stereo not drawn)	4	-17	-25	-3.2	i	/	/	3.7	-2
Cc1ccc(S(=O)(=O)Nc2cc(C(C)C)c(O)cc2C)cc1	-15	/	/	/	/	5.2	0.67	-0.7	97*
Cc1ccc(NC(=O)c2cn(CCC#N)nc2-c2cccs2)c([N+](=O)[O-])c1	-28	/	/	/	i	-1.9	0.67	2.8	-7
COc1cccc(COCCN2CCN(S(=O)(=O)c3ccc(C)cc3)CCC2=O)c1	3	-7	-3	-2.6	i	1.3	0.71	-1.1	-21
Cc1cccc(N2CCN(C(=O)C3CCCN(S(=O)(=O)c4c(C)noc4C)C3)CC2)c1C (stereo not drawn)	18	13	-15	23	i	-0.2	0.78	-5.7	5
